# TAR Tat displ: HIV-1 TAR-Tat binding disruption; AID 1259389; HIV-1 TAR RNA, Tat peptide displacement FRET; active compounds read high; 100,000 compounds, 0.6% hits; z-score (concentration not given with the values);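 note: score is relative to mean and SD of negative controls; some compounds called inactive have numbers as strong as hits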
# CDC25B CDK2 inh: human CDC25B-CDK2/CyclinA binding inhibition; P30305+P24941; HTRF CDC25B-CDK2/CyclinA binding, anti-His/anti-Flag; active compounds read high; z-score (test concentration not listed); 94,000 compounds, 0.72% hits; AID 1259370;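 note: score is relative to mean and SD of negative controls; strong numbers were not always called active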
# Active calls of the source: *; nt = no result given; & = joins results of further samples.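 Rule for the calls: active = z-score from 3 up in half or more of its runs; inactive = the rest.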 Not all compounds are listed; rates above refer to the full screens.
# Values run as follows: TAR Tat displ	CDC25B CDK2 inh
> CC(N)Cc1c[nH]c2ccc(O)cc12 (configuration not stated)
    nt	-2.1
> C=C[C@H]1CN2CCC1C[C@H]2[C@H](O)c1ccnc2ccccc12 (some centres not stated)
    2.9	nt
> CC1CCC[C@H](O)CCCCCc2cc(O)cc(O)c2C(=O)O1 (some centres not stated)
    1.6	nt
> Cc1nc2ccc(Cl)cc2c(=O)n1-c1ccc(Br)cc1
    nt	-1
> Cc1nn(-c2nc3ccccc3s2)c2c1C(c1ccccc1F)SCC(=O)N2 (configuration not stated)
    1	-1.9
> Cc1ccc(S(=O)(=O)OCC23CCC(=O)C=C2CCC2C4CCC(=O)C4(C)CCC23)cc1 (configuration not stated)
    nt	-1.6
> CN1CCc2nc(SCc3cccnc3)c(C#N)cc2C1
    -2.5	19*
> CC(C)N1CCc2nc3sc(C(N)=O)c(N)c3cc2C1
    -0.07	-2.4
> CCN1C[C@]2(COC)[C@H](O)C[C@H](OC)[C@@]34[C@@H]5C[C@@]6(O)[C@H](OC(=O)c7ccccc7)[C@@H]5[C@@](OC(C)=O)(C([C@H](OC)[C@H]23)[C@@H]14)[C@@H](O)[C@@H]6OC
    1.6	nt
> C(SCc1nn[nH]n1)c1nn[nH]n1
    nt	1.2

# New compounds follow:
# Values run as follows: TAR Tat displ	CDC25B CDK2 inh
> O=C1NC(=O)C2(C(=O)N1)C(c1cccc(Cl)c1)NC(=O)NC2c1cccc(Cl)c1 (configuration not stated)
    nt	0.55
> CN1C(=O)C(Cc2nc3ccccc3c(=O)n2-c2ccccc2)c2ccccc21 (configuration not stated)
    -2.1	-1.3
> CCCN(CCC)CCc1ccc(O)c(O)c1
    nt	-0.28
> COc1cc2c(cc1OC)C13CCN4C(=O)C(=O)C(CC41)C1C(OCC(=O)O)CC(=O)N2C13 (configuration not stated)
    3	1.3
> CSc1ccc(CNC2CN3CCC2CC3)cc1 (configuration not stated)
    1.1	-1.2
> C=C1C([C@]2(C)C(CC(=O)OC)[C@@](C)(COC(C)=O)OC(=O)C[C@@H]2OC(C)=O)[C@@H](OC=O)[C@H](OC(=O)C(OC(C)=O)C(C)CC)[C@@]2(C)[C@H](c3ccoc3)CC(=O)C12O (some centres not stated)
    2.5	nt
> CN1C2CCC1CC(=NOC(=O)c1ccco1)C2
    nt	-0.69
> O=C(Nc1ccc(F)cc1F)N1Cc2ccccc2-n2cccc2C1c1cccs1 (configuration not stated)
    0.69	nt
> O=c1[nH]c2ccccc2n1C1CCN(CCCC(c2ccc(F)cc2)c2ccc(F)cc2)CC1
    1.3&1.6	-1.1

# An excerpt of these results, tab-delimited.
mol	TAR Tat displ	CDC25B CDK2 inh
CN1C(=O)C(Cc2nc3ccccc3c(=O)n2-c2ccccc2)c2ccccc21 (configuration not stated)	-2.1	-1.3
CCCN(CCC)CCc1ccc(O)c(O)c1	nt	-0.28
COc1cc2c(cc1OC)C13CCN4C(=O)C(=O)C(CC41)C1C(OCC(=O)O)CC(=O)N2C13 (configuration not stated)	3	1.3
CSc1ccc(CNC2CN3CCC2CC3)cc1 (configuration not stated)	1.1	-1.2
C=C1C([C@]2(C)C(CC(=O)OC)[C@@](C)(COC(C)=O)OC(=O)C[C@@H]2OC(C)=O)[C@@H](OC=O)[C@H](OC(=O)C(OC(C)=O)C(C)CC)[C@@]2(C)[C@H](c3ccoc3)CC(=O)C12O (some centres not stated)	2.5	nt

# Compounds from the list above containing an NH in an aromatic ring (3):
# Values run as follows: TAR Tat displ	CDC25B CDK2 inh
> CC(N)Cc1c[nH]c2ccc(O)cc12 (configuration not stated)
    nt	-2.1
> C(SCc1nn[nH]n1)c1nn[nH]n1
    nt	1.2
> O=c1[nH]c2ccccc2n1C1CCN(CCCC(c2ccc(F)cc2)c2ccc(F)cc2)CC1
    1.3&1.6	-1.1

# Source: PubChem BioAssay (Center for Chemical Genomics, University of Michigan)
